N370S GC: N370S glucocerebrosidase modulation, Gaucher chaperone candidate. 330,000 tested, 0.092% active. AID 2101. N370S GC spleen homogenate, 4MU-glucoside fluorescence. Potency, µM (doses to about 59.4 µM), for the others: at the top dose activity change, negative = inhibition, actives largely listed as inhibitors. P04062;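 also: 0% = full enzyme activity and -100% = no enzyme basal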
FEN1 inh: inhibitors of human flap endonuclease 1; Recombinant FEN1 flap cleavage, fluorescence, 15 min; 390,000 tested, 0.35% active; Potency, µM (highest dose often 114 µM), for inactives: at the top dose activity change, negative = inhibition, most hits filed as inhibitors; P39748; also: nearly all actives have a fitted effect of over 65% in size
Target sequence (P39748 whole entry, looked up): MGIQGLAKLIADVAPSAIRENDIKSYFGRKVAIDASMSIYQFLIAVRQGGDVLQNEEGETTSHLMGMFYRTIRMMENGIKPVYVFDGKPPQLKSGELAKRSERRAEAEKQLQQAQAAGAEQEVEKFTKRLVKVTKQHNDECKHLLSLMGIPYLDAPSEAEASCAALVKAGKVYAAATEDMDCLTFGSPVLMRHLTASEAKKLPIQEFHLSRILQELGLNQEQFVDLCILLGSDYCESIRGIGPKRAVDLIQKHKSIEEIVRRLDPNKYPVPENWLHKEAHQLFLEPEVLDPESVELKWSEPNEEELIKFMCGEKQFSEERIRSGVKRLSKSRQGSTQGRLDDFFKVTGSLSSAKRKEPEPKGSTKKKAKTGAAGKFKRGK
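Recombinant FEN1 (10 nM) was preincubated with pin-transferred compounds for 15 min at room temperature, then flap DNA substrate (50 nM final) was added. Plates were read at 0 and 15 min, and normalized concentration–response data were fitted to a four-parameter Hill equation.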
* hit, by the source's call; ? = inconclusive; / = not tested or not shown; [ ] = dose if it differs, or a comment. Calls follow the shape of the dose curve; as a rule, active = well fitted curve in the direction sought with a large enough effect; inconclusive = small, poorly fitted or top-dose-only effect, or another doubt; inactive = no such curve, though single readings can be large; an effect the other way counts as inactive or inconclusive. Unless noted, % is scaled to controls: 0 for no effect and ±100 for the full control effect; potency is read from the fitted curve at half-maximal effect.

Structure,N370S GC,FEN1 inh
O=C(N/N=C/c1cccnc1)c1cccc(NC(=O)c2cccc(Br)c2)c1,-1%,0%
CCc1nnc(NC(=O)CSc2nc(-c3ccccc3)c(-c3ccccc3)o2)s1,10%,-3%
CCN1C(=O)C(=O)N(CC(=O)Nc2cccc(C(F)(F)F)c2)C1=O,/,-1%
COc1ccc(-c2cc(-c3ccc(C)cc3)nc3c2COc2ccccc2-3)cc1,/,12%
CCOC(=O)c1c(C)n(C)c2ccc(OC)c(NC(=O)CCN3CCC(Cc4ccccc4)CC3)c12,9%,-3%
COc1cccc(CC(=O)Nc2ccccc2N2CCCC2)c1,0%,11%
CCOC(=O)c1c(C)[nH]c(=S)c(C#N)c1-c1ccc(OC)cc1,-5%,4%
Cc1cc(Nc2ccc(F)c(Cl)c2)n2ncnc2n1,2%,-17%
CNC(=O)C1CC(=O)N(Cc2ccc3c(c2)OCO3)C(=Nc2ccc(F)cc2)S1 (stereo not given),-2%,-4%
O=[N+]([O-])c1ccc(/C=N/Nc2nc(NCc3ccccc3)nc(N3CCOCC3)n2)cc1,2%,4%
Cn1c(=O)c2cc(S(=O)(=O)Nc3cccc(F)c3)ccc2n(C)c1=O,2%,-6%
CCN(CC)CC(=O)Nc1scc2c1c(=O)oc1ccccc12,-8%,4%
Cc1ccc(C)c(S(=O)(=O)NC2CCSC2=O)c1 (stereo not given),1%,-1%
NC(=O)NC(CC(=O)NCCc1ccc(S(N)(=O)=O)cc1)c1ccc(Cl)cc1 (stereo not given),-10%,-6%
CCc1ccccc1NC(=O)c1cc(C2CC2)on1,7%,-15%
Cc1cccc(NC(=O)c2sc3nc(-c4ccc(F)cc4)cn3c2C)n1,3%,7%
CCn1c(Cc2ccccc2)nnc1SCC(=O)N1CCCCC1,-8%,-9%
COc1ccc(NC(=O)CSc2nnc(NC(=O)CN3CCOCC3)s2)cc1,0%,6%
COC(=O)c1ccc(CN2CCCC(C(=O)Nc3ccc(-c4ccn[nH]4)cc3)C2)cc1 (stereo not given),-10%,13%
CCOc1cc(CNCC2CCCN2CC)cc(Cl)c1OC (stereo not given),-2%,-5%
CC(C)(C)c1ccc(CS(=O)CC(O)CO)cc1 (stereo not given),-5%,3%
Cc1c(C(=O)NC(c2ccccn2)C(F)(F)F)oc2c(F)cccc12 (stereo not given),-2%,-4%
CCOc1ccc(NC(=O)c2sc3nc(N4CCOCC4)c4c(c3c2N)CC(C)(C)OC4)cc1,26%,20%
COc1ccc(S(=O)(=O)N2CCOCC2)cc1NC(=O)Cc1c(F)cccc1Cl,/,1%
CC(C)(C)C(=O)Nc1ccc(S(=O)(=O)N2CCC(c3nc4ccccc4[nH]3)CC2)cc1,-4%,4%
CCCCNc1cc(Cl)nc(N)n1,2%,-7%
O=C(NCC1CCN(S(=O)(=O)c2ccccc2)CC1)Nc1ccc(F)cc1F,1%,9%
CCN1CCN(Cc2c(O)ccc3oc(C)c(C(=O)Nc4ccc(OC)cc4)c23)CC1,/,7%
COC(=O)CSc1nnc(CNS(=O)(=O)c2ccc(Cl)cc2)n1C,3%,-3%
CCN(CC)S(=O)(=O)c1cccc(NC(=O)Nc2cccc(C(F)(F)F)c2)c1,-7%,?
Cc1cnc(C(=O)OC(C(=O)c2ccccc2)c2ccccc2)cn1 (stereo not given),/,-15%
O=C(NCC(c1ccco1)N1CCCCC1)c1ccc(S(=O)(=O)Nc2ccccc2Cl)cc1 (stereo not given),/,-14%
CC1(CCc2ccccc2)NC(=S)N(c2ccc(Cl)cc2)N1 (stereo not given),23%,-3%
CCN(CC)CCCN1C(=O)C(O)=C(C(=O)c2ccc(C)o2)C1c1cccs1 (stereo not given),-7%,/
CN(C)CCNc1oc(/C=C/c2ccccc2)nc1C#N,?,11%
Cc1cc(C)c(OCCCCNCc2ccccc2)c(Cl)c1,16%,4%
CCN1C(=O)[C@H]2[C@@H](c3ccc(-c4ccc(OC)cc4)c(OC)c3)N[C@@](C)(C(=O)OC)[C@H]2C1=O,-2%,-16%
COc1ccc(OCc2nc3ccccc3[nH]2)cc1,-14%,-15%
O=S(=O)(NNC(=S)Nc1ccc(S(=O)(=O)Nc2ncccn2)cc1)c1ccc(Br)cc1,-5%,12%
COc1ccc2c(c1)C(=O)N(c1ccc(C)cc1)C(=O)C2,19%,-9%
COc1ccc(-c2csc(NC(=O)C3CC(=O)N(c4ccc5c(c4)OCCO5)C3)n2)cc1 (stereo not given),-7%,4%
COc1ccccc1CN1CCC(CNC(=O)c2cnn(-c3ccc(C)c(C)c3)c2C2CCN(C(=O)OC(C)(C)C)CC2)CC1,/,-10%
CC(C)c1ccc(N2C(=O)CSC23C(=O)N(Cc2ccccc2)c2ccccc23)cc1 (stereo not given),/,-5%
Cn1c(=O)c2c(nc(N/N=C/c3cccnc3)n2Cc2ccc(F)cc2)n(C)c1=O,6%,-1%
N#Cc1c(-c2ccc(Br)cc2)nc2n(c1=O)CCCS2,-5%,-3%
Cc1ccc(S(=O)(=O)N2[C@@H](c3ccccc3)C(C(=O)O)=CC[C@H]2c2ccc(C(C)C)cc2)cc1,-6%,-14%
Cc1ccc(SCc2cc(=O)[nH]c(N3CCCCC3)n2)cc1,-10%,-3%
C[C@@H](O)CNC(C)(C)CC(=O)N[C@@H]1CCc2ccccc2N(Cc2ccc(-c3ccccc3-c3nn[nH]n3)cc2)C1=O,-9%,/
Cc1ccc(Cl)cc1NC(=O)CSC1=Nc2ccccc2C2=NC(Cc3ccccc3)C(=O)N12 (stereo not given),/,-8%
CC1CCC(C(C)C)C(OC(=O)C[n+]2cccc(C(N)=O)c2)C1 (stereo not given),0%,17%
NS(=O)(=O)c1ccc(N/N=C/C=C/c2ccccc2[N+](=O)[O-])cc1,-14%,-25%
COc1ccc(NC(=O)C2CCCO2)cc1OC (stereo not given),3%,-2%
CC(=O)NC(=S)Nc1ccc([N+](=O)[O-])cc1C,-8%,-1%
Cc1ccc2cc(CCNC(=O)c3ccco3)c(=O)[nH]c2c1C,10%,-6%
C[C@H](NC(=O)[C@H]1N2C(=O)c3ccccc3C2SC1(C)C)C(=O)N1CCCCC1 (stereo not given in full),4%,24%
CCCCN1CC(=O)N2[C@H]3c4cc(Cl)ccc4OC[C@@H]3[C@H](c3ccccc3)[C@]2(C)C1=O,/,6%
COc1ccc(C[C@H]2CN3C(=NC[C@@H]3C)N2CCNC(=O)CCC2CCCCC2)cc1,-6%,-1%
CCS(=O)(=O)CCSc1nc2ccccc2s1,-6%,-11%
COC(=O)c1ccc(CSc2nnc(SCc3ccc(C(=O)OC)o3)s2)o1,1%,7%
Cc1ccc(F)cc1S(=O)(=O)N1CCC(c2nc3ccccc3s2)CC1,/,11%

The list continues.
Structure,N370S GC,FEN1 inh
CS(=O)Cc1cc(Sc2ccccc2)nc(-c2cccnc2)n1 (stereo not given),4%,-3%
CC(C)(C)OC(=O)N1CCC(c2cc(=O)n3[nH]cc(C(=O)NC4CCCC4)c3n2)CC1,3%,10%
CCOC(=O)C1=C(COC(=O)C(C)(C)Oc2ccc(Cl)cc2)NC(=O)NC1C (stereo not given),/,2%
O=C(NNC(=O)C12CC3CC(CC(C3)C1)C2)c1ccco1,0%,1%
Cc1cc2ccccc2nc1SCC(=O)N1c2ccccc2CC1C (stereo not given),23%,-7%
CC(C)CNC(=O)C1CCN(c2ccc(S(=O)(=O)N3CCOCC3)cc2Cl)CC1,-1%,-9%
CCN(CC)C(=O)N(CC)Cc1ccccc1,-2%,2%
N/C(=N\O)c1ccccc1-n1cccc1,-1%,-6%
CCOc1cc2c(C#N)c(N3CCOCC3)nc(N)c2c(N)n1,6%,-14%
Cn1c(=O)n(Cc2ccccc2F)c2ccccc21,-3%,-6%
C=CCn1c(SCc2c(Cl)cccc2Cl)nnc1-c1cccnc1,2%,-1%
O=C(CC1C(=O)N(c2ccccc2)C(=S)N1c1ccccc1)c1ccc(Br)cc1 (stereo not given),7%,-15%
CN(CC(=O)Nc1ccc(Cl)cc1)C(=O)C1CCCC1,-17%,12%
Cn1nnnc1SCCOc1ccc(C#N)cc1,1%,4%
COc1cc(/C=C/C(=O)OCC(=O)NCCc2ccc(F)cc2)ccc1OC(F)F,/,0%
O=C(Nc1ccccc1)N1CCCN(c2c(Cl)cncc2Cl)CC1,4%,-4%
COc1ccc(CNC(=O)c2cc(-c3ccc(Br)s3)nc3ccccc23)cc1,/,-1%
CC(=O)Nc1cccc(NC(=O)c2cccc3cccnc23)c1,-5%,-16%
O=C(O)c1cccc(N2C(=O)c3cccc4cccc(c34)C2=O)c1,-5%,-4%
COc1ccc(S(=O)(=O)NN(C)c2ncc(C(F)(F)F)cc2Cl)cc1,1%,-14%

Part of the list above, as labelled records:
> CCOC(=O)C1=C(COC(=O)C(C)(C)Oc2ccc(Cl)cc2)NC(=O)NC1C (stereo not given)
  N370S GC: / | FEN1 inh: 2%

> O=C(Nc1ccccc1)N1CCCN(c2c(Cl)cncc2Cl)CC1
  N370S GC: 4% | FEN1 inh: -4%

> CC(C)(C)OC(=O)N1CCC(c2cc(=O)n3[nH]cc(C(=O)NC4CCCC4)c3n2)CC1
  N370S GC: 3% | FEN1 inh: 10%

> CCN(CC)C(=O)N(CC)Cc1ccccc1
  N370S GC: -2% | FEN1 inh: 2%

Further records
Structure,N370S GC,FEN1 inh
CC(OC(=O)CNS(=O)(=O)c1ccc2ccccc2c1)C(=O)N(C)c1ccccc1 (stereo not given),-4%,-4%
COc1ccc(CC(=O)Nc2ccccc2C(=O)N2CCOCC2)cc1OC,2%,0%
COc1ccc(Cl)cc1NC(=O)c1cccc(NC(=O)CCC(=O)O)c1,6%,-2%
O=C(NC1CCCCC1)c1ccc(S(=O)(=O)NCc2ccco2)cc1,5%,11%
CCC(=O)Nc1ccc(S(=O)(=O)Nc2ncccn2)cc1,-3%,2%
O=C(CSc1nnc(-c2ccccc2)n1-c1ccccc1)N1c2ccccc2Sc2ccccc21,6%,-5%
CCN(CC)C(=O)c1nc[nH]c1C(=O)N1CCC(C)CC1,/,56%[activator]
COc1cccc(C2=CC(=O)C[C@H](c3ccc(F)cc3)C2)c1,/,-17%
Cc1ccccc1-n1c(=O)cc(N2CCc3ccccc3C2)[nH]c1=O,-2%,47%[activator]
CC1=CC(=O)C(C(C)=Nc2ccccc2Cl)C(=O)O1 (stereo not given),1%,-2%
Clc1ccc2oc(-c3cccnc3NCc3ccccc3)nc2c1,-7%,0%
Cc1c(OC(C)C(=O)NCCCN2CCOCC2)ccc2c3c(c(=O)oc12)CCC3 (stereo not given),2%,-7%
Cc1nc2cc(NCc3ccc(Cl)cc3)ccc2n1C,-3%,4%
Cc1ccc(Oc2c(C)nc(-c3ccccc3)[nH]c2=O)cc1,7%,11%
CC1CC(=O)C=C(O)C1C(=O)OC(C)(C)C (stereo not given),-2%,-1%
CC(C)Cn1c(=O)c2ccccc2c2ccccc2c1=O,10%,-3%
COc1ccc(Nc2nc3ccc(Cl)cc3nc2-n2nc(C)cc2C)cc1,/,-2%
CCOC(=O)C1(Cc2ccccc2)CCCN(CCCn2cccn2)C1 (stereo not given),-2%,-2%
COc1ccc(CCCC(=O)N/N=C/c2ccc(C)cc2)cc1,4%,-16%
N#Cc1ccc(Nc2ccccc2)c(N)c1,-25%,2%
Brc1ccc(-c2cnc3n2CCCC3)cc1,-1%,-13%
CCn1c(SCC(=O)Nc2ccc(OC)c(OC)c2)nc2c(c1=O)SCC2,-5%,5%
Nc1nc2ccc(N3CCOCC3)cc2s1,-2%,8%
COc1ccc(S(=O)(=O)Nc2cccc(SC)c2)cc1OC,-3%,12%
CC(C)(C(=O)Nc1nccs1)c1ccccc1,8%,2%
O=C(CO/N=C/c1ccccc1OC(F)F)NC1CCCCC1,4%,11%
O=C(CSc1nnc(COc2ccc(Cl)cc2)n1Cc1ccco1)N1CCNC1=O,1%,12%
CC(=O)c1cccc(NS(=O)(=O)c2ccc(-c3cc(C)no3)s2)c1,-1%,-4%
C/C=C/C1=CC(=O)C[C@H](c2ccc3c(c2)OCO3)C1,/,-17%
OC[C@@H]1[C@@H](c2ccc(Cl)cc2)C(c2ccc(F)cc2)=NN1c1ccccc1,?,-1%
CN1CCN(C(=O)CCc2nc3ccccc3c(=O)[nH]2)CC1,17%,9%
C[C@H](CO)N1C[C@H](C)[C@H](CN(C)Cc2ccccc2)Oc2c(NC(=O)Nc3ccc(F)cc3)cccc2C1=O,/,12%
O=C(c1c(O)c2ccccc2oc1=O)C1CCC1,7%,-14%
COc1ccc(CCNC(=O)c2ccn[nH]2)cc1OC,13%,7%
O=C(CN1CCN(S(=O)(=O)c2ccccc2)CC1)N1CCCCC1,/,11%

The list is partial; most or all hits stand in other tables.
